AID504770: growth inhibitors of E. coli YBA685 in a screen for V. cholerae RctB (chromosome II replication) inhibitors; E. coli YBA685 rctB-dependent plasmid, OD600 growth, 3 h; stronger effect = lower value; z-score (concentration not given with the values); actives 0.27% (n = 130,000);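 active = z-score under -2 on both plates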;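 also: wells of about 30 µL received 100 nL stock; score is relative to mean and SD of the test wells; the first replicate is given; strong numbers were not always called active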
CapD inh: inhibitors of Bacillus anthracis CapD enzyme; z-score (concentration not given with the values); actives 0.23% (n = 140,000); purified CapD enzyme, fluorescence intensity read-out; stronger effect = lower value; some hits fall short of the stated cut;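 active = z-score under -4 in either of two replicates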;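 also: stock transfer was 100 nL into about 40 µL; score is relative to mean and spread of the plate; one replicate is shown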
Starred values were filed as active, the others as inactive; . = not tested or not shown; & = joins results of further samples.

Preview (four entries):
Below each SMILES – AID504770, CapD inh
- Cc1nc(-c2cccc(CSc3nnc(C(F)(F)F)n3C)c2)no1
  ., 0.075
- Cc1cc(C(=O)NCC(=O)NNC(=O)OCc2ccccc2)nn1C
  ., 0.51
- O=C(CSc1nc2c(c(=O)[nH]1)CN(Cc1ccccc1)CC2)Nc1ccccc1
  0.45, 1.3
- COC(=O)c1ccc(N2CCN(C(=O)c3cccs3)CC2)c([N+](=O)[O-])c1
  ., -0.45

The listing, repeating the preview:
Below each SMILES – AID504770, CapD inh
- Cc1nc(-c2cccc(CSc3nnc(C(F)(F)F)n3C)c2)no1
  ., 0.075
- Cc1cc(C(=O)NCC(=O)NNC(=O)OCc2ccccc2)nn1C
  ., 0.51
- O=C(CSc1nc2c(c(=O)[nH]1)CN(Cc1ccccc1)CC2)Nc1ccccc1
  0.45, 1.3
- COC(=O)c1ccc(N2CCN(C(=O)c3cccs3)CC2)c([N+](=O)[O-])c1
  ., -0.45
- CS/C(=C(\C#N)C(=O)C1CC1)N1CCOCC1
  0.45, 0.77
- N#C/C(=C/c1ccc(-c2cccc(C(F)(F)F)c2)o1)c1cccc(F)c1
  0.4, 1.1
- COc1nccnc1NS(=O)(=O)c1ccc(NCc2cc(Br)ccc2O)cc1
  -0.05, 0.14
- CC(=O)Nc1ccc(S(=O)(=O)Nc2ccccc2Oc2ccc(Cl)cc2Cl)cc1
  ., 0.29
- Clc1cccc(-c2nc(-c3ccc(Br)cc3)c(-c3ccc(Br)cc3)[nH]2)c1
  ., 20
- N#Cc1cn(Cc2ccc(F)cc2)c2ccccc12
  0.75, 0.15
- O=C1c2ccccc2C(=O)c2c1oc(-c1ccccc1)c2C(=O)c1ccccc1
  0.35, 63
- CN1C(=O)OC(C)(CCc2ccccc2)C1(C)O (stereo not given)
  0.05, -0.055
- COC(=O)c1nc2n(n1)C(c1ccc(Cl)cc1)C=C(c1ccc(Cl)cc1)N2 (stereo not given)
  ., 2.8
- N#CCC(=O)Nc1ccc(Oc2ccccc2)cc1
  -0.85, 2.4
- COc1ccc(NC(=O)CN(C)C(C)C(=O)N2CCCCC2)cc1 (stereo not given)
  -0.25, .
- N#CC1(NCCc2ccccc2)CCN(Cc2ccccc2)CC1
  -1.4, -0.17
- CC1(C)c2ccccc2N2CCC(=O)NC21/C=C/c1cccnc1 (stereo not given)
  ., 0.12
- COc1ccc(NC(=O)COC(=O)c2ccc(N3CCCC3=O)cc2)cc1
  -0.5, .
- Cc1cc(-c2csc(N)n2)c(C)n1Cc1ccco1
  1.2, .
- Cc1cccc(NC(=O)CNS(=O)(=O)c2cccs2)c1
  2, -0.2
- Cc1c(NC(=O)CCN2C(=O)c3ccccc3C2=O)c(=O)n(-c2ccccc2)n1C
  ., 0.2
- COC(=O)c1scc(C)c1NC(=O)/C=C/C(=O)O
  0.05, 1.1
- c1ccc(-c2nc(N3CCCCC3)c3ccccc3n2)cc1
  -0.15, .
- CC1CC(Nc2ccccc2)c2ccccc2N1C(=O)c1cccc(Br)c1 (stereo not given)
  ., -0.16
- Cc1nc2sccn2c(=O)c1S(=O)(=O)NC1CC1
  0.65, 6.8
- O=C(NCc1ccccc1)c1cc(=O)[nH]c2ccccc12
  -0.55, .
- O=C1/C(=C/c2cccs2)N=C(c2cccs2)N1Nc1ccccc1
  1.8, -2.9
- CCOc1ccc2nc(NCCNC(=O)C3CCCCC3)c(C#N)cc2c1
  0.4, .
- c1csc(C2=NCCC2)c1
  -3.8, .
- CCCCCCc1cc2cc(C#N)c(=O)oc2cc1O
  0.75, 2

Fetched by compound from the list above:
Below each SMILES – AID504770, CapD inh
- c1csc(C2=NCCC2)c1
  -3.8, .
- O=C(CSc1nc2c(c(=O)[nH]1)CN(Cc1ccccc1)CC2)Nc1ccccc1
  0.45, 1.3
- CCCCCCc1cc2cc(C#N)c(=O)oc2cc1O
  0.75, 2
- CC1CC(Nc2ccccc2)c2ccccc2N1C(=O)c1cccc(Br)c1 (stereo not given)
  ., -0.16
- O=C(NCc1ccccc1)c1cc(=O)[nH]c2ccccc12
  -0.55, .
- Cc1c(NC(=O)CCN2C(=O)c3ccccc3C2=O)c(=O)n(-c2ccccc2)n1C
  ., 0.2
- COC(=O)c1scc(C)c1NC(=O)/C=C/C(=O)O
  0.05, 1.1

The listing continues.
Below each SMILES – AID504770, CapD inh
- COCCn1c(=NC(=O)c2ccc(Br)s2)sc2cc(NC(C)=O)ccc21
  -0.55, 1.7
- CC(C)CNC(=O)c1ccccc1N
  -0.9, .
- O=C(Nc1ccccc1)c1nn(-c2ccccc2)c(=O)cc1C(F)(F)F
  ., 0.64
- CC(=O)NCc1ccc(S(N)(=O)=O)cc1
  0.7, .
- Brc1ccc(-n2cc(-c3ccccc3)c3c(NCc4ccccn4)ncnc32)cc1
  ., -0.12
- O=C(O)C1Cc2c([nH]c3ccccc23)C(CCc2ccccc2)N1 (stereo not given)
  ., 3
- COC(=O)c1ccccc1NC(=O)NCc1ccccn1
  -0.95, 8.6
- CCn1c2ccccc2c2cc(CN3CCN(C(=O)C(CC(=O)O)Cc4cccc(C)c4)CC3)ccc21 (stereo not given)
  ., 26
- CC(C)CC1NC(C(=O)O)Cc2c1[nH]c1ccccc21 (stereo not given)
  0, .
- CCOc1ccc(CCNC(=O)C2CCCN(S(C)(=O)=O)C2)cc1OCC (stereo not given)
  -0.35, 0.29
- COc1cccc(C(=O)NN(C)c2nc(C)cc(C)c2S(C)(=O)=O)c1
  ., -0.33
- COc1ccccc1CNC(=O)CCS(=O)(=O)c1cccc2nonc12
  ., -0.11
- Cc1cccc(N(C)S(=O)(=O)c2ccc3c(c2)n(C)c(=O)c(=O)n3C)c1
  -0.2, 0.14
- CCOC(=O)c1cccc(NC(=O)CCS(=O)(=O)c2cccc3nsnc23)c1
  0.65, -0.82
- NC(=O)C1CCN(C(=O)/C=C/c2cccc(Br)c2)CC1
  -0.65, -0.18
- CCN(CC)C(=O)c1cc2c(n(-c3ccccc3)c1=O)CCCC2=O
  ., 0.58
- FC(F)(F)c1cc(/C=C\c2noc(-c3ccc(CN4CCCC4)cc3)n2)cc(C(F)(F)F)c1
  0, 0.54
- CCn1c(SCC(=O)OC)nc2c1c(=O)n(C)c(=O)n2C
  0.75, 0.15
- Nc1ccccc1Nc1c(N)c(=O)oc2ccccc12
  -0.4, -0.22
- CCn1c2ccccc2c2cc(C3C(C#N)=C(C)NC(C)=C3C#N)ccc21
  0.95, 4.5
- O=c1[nH]c(CN2CCCC3(CCCCC3)C2)nc2c1C1(CCCCC1)Cc1ccccc1-2
  ., -0.49
- Cc1nc2ccc(-n3ccc(=O)cc3)cc2s1
  1, 0.035
- CS(=O)(=O)N(Cc1ccco1)CC(O)Cn1c2ccccc2c2ccccc21 (stereo not given)
  -0.85, 11
- CCOC(=O)N1CCC(NC(=O)c2cnn3c(C(F)(F)F)cc(-c4ccccc4)nc23)CC1
  -0.2, 1.7
- Cc1noc(C)c1C(=O)NCc1ccc(-c2csnn2)cc1
  0, -0.34
- Cn1cnnc1Sc1cc(C#N)c(C#N)cc1Sc1nncn1C
  0.7, 0.38
- Cc1cc(C)c(NC(=O)COC(=O)c2ccco2)c(C)c1
  -0.4, 0.06
- CC(=O)n1cc(/C=C2\N=C(c3cccc4ccccc34)OC2=O)c2cc(Br)ccc21
  ., 0.52
- O=C(/C=C/c1ccccc1)Nc1nnc(-c2ccc(Br)cc2)o1
  0.55, .
- CC(=O)Oc1cc2c(C(=O)NCC3CCCO3)c(C)oc2c2ccccc12 (stereo not given)
  0.35, .
- CCn1c(NC(=O)Nc2ccccc2OC)nc2ccccc21
  0.05, .
- Cc1ccc(CNC(=O)CSCc2c(C)noc2C)cc1
  0.9, .
- CCCCNc1nc(Cl)nc2nc(NCCO)n(Cc3ccccc3)c12
  ., 0.025
- O=C(Nc1ccccc1)N1CCCC1
  -0.85, 0.12
- O=C(Cn1ncc2c1-c1ccccc1OC2)N1CCCCC1
  -0.65, 0.05
- CCc1cccc(CC)c1N(COC)C(=O)Cn1nnc2ccccc21
  1.6, .
- CCOC(=O)c1ccc(N=c2oc3cc(N(CC)CC)ccc3cc2C(N)=O)cc1
  ., -0.14
- CCC(=O)N=C1SC2CS(=O)(=O)CC2N1CCc1ccccc1 (stereo not given)
  2.2, -0.8
- N#Cc1c(NC(=O)CO/N=C/c2cccs2)sc2c1CCCCC2
  -0.1, .
- COc1ccc(C(C)=NNC(=O)C(C)Nc2ccc(C)cc2)cc1 (stereo not given)
  -0.6, 0.16
- C[n+]1ccn(C/C(N)=N/O)c1
  0.2, 0.3
- CC(=O)Nc1ccc(C(F)(F)F)cc1N
  -0.25, -0.015
- CC(OC(=O)C1CCN(C(=O)c2ccc(Cl)cc2)CC1)C(=O)NC1CC1 (stereo not given)
  1.3, .
- CCN1CCCC1CN1C(=O)c2c(C(C)C)nc3ccccc3c2C1=O (stereo not given)
  ., -0.23
- CCN(CC)Cn1c(O)c(N=NC(=O)Cc2ccc(OC)cc2)c2cc(Br)ccc21
  0, -0.66
- CCN(Cc1ccccc1)C(=O)c1sc2nc(C)cc(C)c2c1N
  -0.45, 53
- O=C(c1[nH]c2ccccc2c1-c1ccccc1)N1CCOCC1
  1.7, 0.095
- CCOc1ccc(CC(=O)NC2CC(C)(C)N(C)C(C)(C)C2)cc1OCC
  0.85, 0.27
- O=C(Cn1nnc(-c2ccc(Cl)cc2)n1)NCC(F)(F)F
  -0.3, .
- O=C(N/N=C/c1ccccn1)c1ccc([N+](=O)[O-])o1
  ., -4.3*
- CCC1CCCCN1C(=O)CSc1nnc2c3ccccc3n(CC(=O)O)c2n1 (stereo not given)
  -0.4, .
- O=C(CNc1ccc(F)c(Cl)c1)Nc1ccc2c(c1)OCCO2
  0.7, -0.11
- COc1cc(S(=O)(=O)N2CCN(c3ccccc3OC)CC2)c(C)cc1C
  2.1, -1.3
- NS(=O)(=O)c1ccc(NC(=O)COC(=O)CN2C(=O)C3CC=CCC3C2=O)cc1 (stereo not given)
  0.4, .
- CCOC(=O)CC(=O)CSc1nc2sc(C(=O)OCC)c(C)c2c(=O)n1CCc1ccccc1
  ., 1.6
- COc1ccc(CNC(=O)CCNc2ccc(C)cc2)cc1
  -0.65, .
- COC(=O)c1cc(NC(=O)CSc2nc3[nH]ncc3c(=O)n2-c2ccccc2C)cc(C(=O)OC)c1
  ., -0.47
- CC(=O)n1c(C=Nc2ccccc2)c(O)c2ccccc21
  -0.05, 0.35
- O=C(CBr)c1cc(Cl)ccc1Cl
  -1.8, -0.3
- COC1CCCCC1NC1CCCC1 (stereo not given)
  -0.9, .

The list goes on.
SMILES	AID504770	CapD inh
O=C(CC(NCc1ccco1)C(=O)O)Nc1cccc(C(F)(F)F)c1 (stereo not given)	1.4	-0.16
COc1ccc(S(=O)(=O)CCC(=O)O)cc1	-0.9	0.08
COc1ccc(NC(=O)C2C3C=CC(C3)C2C(=O)NCc2ccco2)cc1 (stereo not given)	0.7	.
CC1CN(S(=O)(=O)c2cccc(C(=O)N(C)C3CCCCC3)c2)CC(C)O1 (stereo not given)	-0.35	.
O=C(OCc1cc(Cl)cc2c1OCOC2)c1ccc2c(=O)n3c(nc2c1)CCCCC3	0.85	.
O=C1CC2(CCCC2)C(=O)N1CN1CCN(S(=O)(=O)c2ccc(F)cc2)CC1	1.8	.
O=C(NCCc1ccccc1)c1cc(=O)c2ccccc2o1	-0.25	-1.3
O=C(COC(=O)c1ccccc1Br)c1cc2ccccc2o1	-0.05	.
N#Cc1c(OCC(F)(F)F)ccc(SCc2ccccc2)c1OCC(F)(F)F	-0.5	2.1
COc1cc2c(cc1OC)C1=NC(=O)CN1C(SCc1ccccc1C)=N2	.	8.2
Cc1ccc(-n2ncc(N(C)N3CC(C)(C)C3=O)c(Cl)c2=O)cc1	-0.7	-0.76
O=C(/C=C/N1CCN(c2cccc(C(F)(F)F)c2)CC1)C(F)(F)F	.	-1.1
CCN1/C(=C(\C#N)c2nc(C#N)c(C#N)nc2N2CCOCC2)Nc2ccccc21	0.15	.
COc1ccc(CCn2c(=S)[nH]c3ccc(Cl)cc3c2=O)cc1OC	-0.05	-0.3
COc1ccc(-c2cc3nc(C)c(CCC(=O)N4CCCC4)c(C)n3n2)c(OC)c1	0.5	3.6
O=C(NCc1ccco1)c1cccc(-c2nnc(-c3ccccc3)o2)c1	0.5	0.6
CCCN1C(=O)/C(=c2\sc3n(c2=O)C(c2ccc(OC(C)=O)cc2)C(C(=O)OCC)=C(C)N=3)c2ccccc21 (stereo not given)	.	-0.2
NCCCC[C@H](N[C@@H](CCc1ccccc1)C(=O)O)C(=O)N1CCC[C@H]1C(=O)O	0.1	-0.56&-0.12
CCn1c(SCCc2ccccc2)nc2cc(S(=O)(=O)N3CCOCC3)ccc21	0	.
CCOC(=O)c1ccc(NC(=O)C2CC(=O)N(Cc3ccc(OC)cc3)C(=Nc3ccccc3)S2)cc1 (stereo not given)	.	0.71
CN(C)/C=C1\SC(=S)N(c2ccc(Br)cc2)C1=O	-0.3	-0.15
CC(C)(C)c1csc(Cc2ccc(Cl)cc2)n1	.	0.6
Cn1c(SCc2ccccc2)nnc1-c1csc(-c2ccccc2)n1	.	0
Cc1cccc(C)c1NC(=O)C(C)N1CCCCC1 (stereo not given)	.	0.33
CN(C)C(=O)c1ccc(Oc2cc(Cl)cc(Cl)c2)o1	-0.5	-0.52
CC(C)COc1ccc(C(=O)N2N=C(C(F)F)CC2(O)C(F)F)cc1 (stereo not given)	1.6	-0.11
CN1CCC(N(C)C(=O)c2cc(-c3ccc(F)cc3)nc3ccccc23)CC1	0.9	11
CCN1CCN(C(=O)c2ccc3c(=O)n(CCc4ccccc4)c(=O)[nH]c3c2)CC1	-2	2.6
Oc1c(Br)cc(Br)cc1C=Nc1ccc(F)cc1	.	-1.5&-1.3
CC(C(=O)NCc1cccs1)n1ncn2cccc2c1=O (stereo not given)	0.1	22
CC(=O)Nc1cccc(NC(=O)CSc2ncnc3ccccc23)c1	0.35	0.72

Compounds as they come. About 0.41% of those tested had a hit in this group.
